# Screening data as filed in PubChem.
# YopH inh = YopH tyrosine phosphatase inhibitors, primary screen, biochemical, fluorescence Ex485/Em525 | YopH tyrosine phosphatase [Yersinia enterocolitica] | inhibition, %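 (about 10 µM by stock and volumes)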 | hit rate 0.16% among 140,000 | AID 898, 2007;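 active = inhibition of 50% or more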;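 also: controls were vehicle for no effect and minimum signal wells for full effect; inactives centre near -20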
# Arbovirus inh = antivirals against arbovirus infection, primary screen, cell-based, full library, 10K replicate subset. arbovirus infection cell-based antiviral screen. inhibition, % at 10 µM. hit rate 0.37% among 200,000. AID 1251, 2008;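 active = inhibition from about 30%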;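 also: bluetongue infection of BSR cells; cell survival read as ATP light after 72 h; 0% = infected wells without compound and 100% = uninfected wells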
# Mtb growth = M. tuberculosis H37Rv growth inhibitors, H37Rv strain (AID 1626) | inhibition, % at 10 µM; hits with a dose series show IC50 in µM | hit rate 0.95% among 220,000 | M. tuberculosis H37Rv growth inhibition; higher % means a stronger effect;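 active = confirmed in a dose series; inconclusive = inhibition above 80% but not taken into the dose series; inactive = below 80% or under 30% at every dose of the series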;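 also: bacteria incubated seven days before Alamar blue readout; 0% = bacteria only wells and 100% = bacteria with antibiotic wells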
# Mtb bLac sens = beta-lactam sensitization of Mtb H37Rv, H37Rv | M. tuberculosis H37Rv growth with meropenem, percent inhibition; hits of this screen are not shown here | AID 434955, 2010 | hit rate 0.27% among 330,000 | inhibition, % at 25 µM;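 active = about 74% or more and at least 40 points above the plate without the antibiotic, then above 30% in a dose series; inconclusive = first-round hits that could not be retested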;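 also: growth measured after seven days incubation then overnight dye step; 0% = bacteria only wells and 100% = bacteria with antibiotic; twin plates without the antibiotic show which effects depend on it; some results filed as inactive read as strong as hits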
# RecA intein inh = Mtb RecA intein splicing inhibitors, primary screen, biochemical, fluorescence, HTS | Protein RecA (Mycobacterium tuberculosis (strain ATCC 25618 / H37Rv)), P9WHJ3 | cell-free RecA intein splicing | inhibition, %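 (about 9 µM by stock and volumes)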 | hit rate 0.75% among 290,000; in the data active = inhibition above about 30%; inconclusive = no clear call, values can overlap the other calls;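 also: 0% = vehicle wells and 100% = reference inhibitor control wells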
# Target sequence (P9WHJ3 whole entry, looked up): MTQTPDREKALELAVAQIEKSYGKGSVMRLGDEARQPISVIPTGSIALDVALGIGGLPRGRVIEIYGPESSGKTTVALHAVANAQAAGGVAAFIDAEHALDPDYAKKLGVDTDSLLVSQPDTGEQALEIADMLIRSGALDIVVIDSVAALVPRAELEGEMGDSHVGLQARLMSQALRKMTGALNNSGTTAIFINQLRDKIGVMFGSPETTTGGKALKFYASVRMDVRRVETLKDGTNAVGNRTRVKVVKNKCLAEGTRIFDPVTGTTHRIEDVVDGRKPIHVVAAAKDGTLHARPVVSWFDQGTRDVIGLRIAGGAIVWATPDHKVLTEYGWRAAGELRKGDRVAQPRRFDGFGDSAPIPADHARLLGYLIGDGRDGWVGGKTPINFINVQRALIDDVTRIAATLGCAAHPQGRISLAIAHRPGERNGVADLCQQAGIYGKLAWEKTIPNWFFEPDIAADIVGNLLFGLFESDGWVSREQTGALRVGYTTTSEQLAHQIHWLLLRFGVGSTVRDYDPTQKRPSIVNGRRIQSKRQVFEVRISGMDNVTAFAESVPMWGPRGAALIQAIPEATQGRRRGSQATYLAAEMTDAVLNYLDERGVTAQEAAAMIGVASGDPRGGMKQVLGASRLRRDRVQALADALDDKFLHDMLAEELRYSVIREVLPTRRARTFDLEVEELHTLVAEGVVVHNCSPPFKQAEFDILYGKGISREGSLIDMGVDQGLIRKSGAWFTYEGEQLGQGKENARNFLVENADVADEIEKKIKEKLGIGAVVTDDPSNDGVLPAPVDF
# Arbovirus inh repeat = second read-out of Arbovirus inh, no call of its own (marks repeat the call); inhibition, %; measured here: 10K subset replicate screen; many hits read low in the repeat;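 first of two repeat runs on a subset; 0% = infected and 100% = uninfected wells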
# * marks the source's active call; other numbers are inactive results; ? = inconclusive; / = not tested or not shown. This is a subset (hit frequency here may not be typical).
SMILES,YopH inh,Arbovirus inh,Mtb growth,Mtb bLac sens,RecA intein inh,others
CCC(O)CC(C(=O)NNc1ccccc1)C(=O)NNc1ccccc1 (centres undefined),/,-24,?,5,-1.8,
COc1ccc(CN2CCN(Cc3nc4ccccc4s3)CC2CCO)c(C)c1C (centres undefined),/,-18,0%,9,2.1,
COCCNc1nc(-c2cc(-c3ccccc3)on2)cc(C(C)C)n1,/,/,6%,15,6.7,
Cc1ccccc1/[N+]([O-])=C/c1ccncc1,78*,1,-15%,-4,-11,
CCC1CCc2c(c3ccccc3[nH]c2=O)O1 (centres undefined),11,4,/,17,1.0,
C=CCn1c(=NC(=O)CN2C(=O)CCC2=O)sc2cccc(OC)c21,-8,-1,5%,-8,6.1,
C=C(C)C1CC=C(CN2CCN(Cc3ccccc3)CC2)CC1 (centres undefined),/,/,/,82,2.9,
COc1ccc(NS(=O)(=O)c2ccc3[nH]c(=O)[nH]c3c2)cc1,/,/,/,7,4.3,
Cc1cccc(NC(=O)c2ccc3nc(N4CCOCC4)sc3c2)c1C,/,/,/,-7,1.7,
O=[N+]([O-])c1ccccc1S(=O)(=O)Nc1ccc(-c2ccc(N3CCCC3)nn2)cc1,/,/,/,-9,-0.2,
Cc1cc(C)c2c(c1)-c1c(ssc1=S)C(C)(C)N2C(=O)CN1C(=O)c2ccccc2C1=O,-12,-6,2%,-8,6.2,
CCC1(CC)NC(=O)N(CC(=O)OCC(=O)Nc2cc(C)ccc2C)C1=O,-30,6,-6%,7,-0.1,
CC(C)C1N(c2ccccc2)C(N)=C(C#N)C1(C#N)C#N (centres undefined),9,14,3%,15,-1.4,
O=C(O)c1cccc(NC(=O)c2ccc(S(=O)(=O)c3ccccc3)cc2)c1,5,11,3%,2,2.1,
Cc1ccc(S(=O)(=O)N(C)CC(=O)O/N=C(\N)c2cccc([N+](=O)[O-])c2)cc1,1,4,-7%,35,0.0,
O=C(Nc1nsc(-c2ccccc2)n1)c1ccc(F)cc1,/,1,2%,-1,4.0,
CCNC(=O)CSc1nnc(-c2cccc(S(=O)(=O)N(CC)CC)c2)n1CCc1ccccc1,-26,2,-6%,-9,-0.1,
COc1ccc(C2CC(c3cc(Br)ccc3F)n3nnnc3N2)cc1 (centres undefined),-39,2,-3%,3,-1.8,
CN(C)CCn1c2c(c(SCC(=O)Nc3cccc4ccccc34)nc1=O)CCC2,/,/,/,-3,1.6,
O=C(c1ccc2c(c1)N(Cc1ccccc1F)C(=O)c1ccccc1S2)N1CCOCC1,/,/,8%,5,0.2,
O=C(CN1C(=O)c2ccccc2S1(=O)=O)Nc1ccccn1,/,/,/,-8,-0.8,
CCOC(=O)N1CCN(C(=O)c2oc3ccc(S(=O)(=O)N4CCCCC4)cc3c2C)CC1,-43,4,-5%,-9,1.2,
O=C(c1cccc(S(=O)(=O)N2CCN(c3ccc(F)cc3)CC2)c1)N1CCCCCCC1,/,/,/,-17,11,
O=C(/C=C/c1ccccc1)NC(=S)NNS(=O)(=O)c1ccccc1,/,15,1%,7,-2.9,
CC1(c2ccc(OC(F)F)cc2)NC(=O)N(CC(=O)Nc2ccccc2)C1=O (centres undefined),/,/,/,0,-1.9,
# Other structures.
SMILES,YopH inh,Arbovirus inh,Mtb growth,Mtb bLac sens,RecA intein inh,others
CC(C)N1CCc2c(sc(NC(=O)c3ccc([N+](=O)[O-])o3)c2C(N)=O)C1,/,/,/,99,-39,
COc1ccc2nc(C)cc(SCC(=O)N3CCCCC3)c2c1,/,-4,-9%,0,-0.8,
CCCCNc1ccc2nsnc2c1[N+](=O)[O-],-16,-6,-6%,-1,-0.3,
CCCNC(=O)c1ccc(C2SCC(=O)N2CCc2ccccc2)cc1 (centres undefined),-17,3,3%,4,0.6,
S=C(NC1CCCCCC1)NC1CCCC1,/,6,-1%,2,-0.1,
C=CCNc1nnc(Sc2ncccc2[N+](=O)[O-])s1,/,4,4µM*,100,-6.6,
O=C(Nc1ccon1)c1cccc(S(=O)(=O)N2CCCCC2)c1,/,4,5%,-2,2.3,
C[C@@H]1CN(C(=O)c2nc3ccc(Cl)cn3c2CN(C)CCc2cnn(C)c2)C[C@H](C)O1,/,/,/,0,-1.2,
COc1ccc(OC)c(C(c2c(C)[nH][nH]c2=O)c2c(C)[nH][nH]c2=O)c1,/,/,/,8,95*,
COc1ccc(-n2ncc3c2CC(C)(C)CC3NC(=O)c2cn[nH]c2)cc1 (centres undefined),/,/,/,-1,6.4,
CC1(C)CC(=O)C2=C(C1)Nc1ccccc1NC2c1cccnc1 (centres undefined),/,7,2%,5,-2.9,Arbovirus inh repeat=8
O=C(OC1CCCCC1)c1ccc2c(c1)C1C=CCC1C(C(=O)O)N2 (centres undefined),-11,-2,/,/,/,
COc1ccc(CCN=C(N)NS(=O)(=O)c2ccc(F)cc2)cc1OC,/,/,/,?,2.8,
COc1cccc(N(CC(=O)NCCSCc2ccc(C)cc2)S(C)(=O)=O)c1,/,/,/,-9,0.0,
CC(CC(=O)Nc1ccc2c(c1)OCO2)c1ccccc1 (centres undefined),/,/,/,-1,10,
Fc1ccc(NC2=NCCCCC2)cc1,/,12,7%,3,-2.3,
O=C(CSc1nnc(COc2ccc(Cl)cc2)o1)N1CCCCC1,/,/,/,0,-0.8,
CCCn1c(NCc2cccc(OC)c2O)nc2ccccc21,-23,16,4%,1,0.3,
O=c1nc2ccc(Cl)cn2c2ccc(S(=O)(=O)N3CCCCC3)cc12,/,/,/,0,-20,
CCCc1ccc(NC(=O)C2CCCN(c3cnccn3)C2)cc1 (centres undefined),/,/,/,1,3.6,
O=C(CCNS(=O)(=O)c1ccc(Cl)cc1)N1CCN(c2ccccn2)CC1,/,/,/,-6,1.6,
Cc1ccc(S(=O)(=O)N2CCN(C(C)C)CC2)cc1,/,0,-13%,-3,-3.8,
Cc1c(NC(=O)c2cnn3c2NC(c2ccco2)CC3C(F)(F)F)c(=O)n(-c2ccccc2)n1C (centres undefined),-17,4,1%,-1,1.6,
O=C(NCCc1ccccc1)c1coc(=O)c(Br)c1,/,/,/,0,-1.0,
CCCCOC(=O)Nc1ccc(C(C)C)cc1,-24,-5,-3%,8,3.5,
# Next part.
SMILES,YopH inh,Arbovirus inh,Mtb growth,Mtb bLac sens,RecA intein inh,others
CC(NC(=O)c1cc2c(=O)n(C)c3ccccc3c2n1C)c1ccc2c(c1)OCCO2 (centres undefined),-11,10,-4%,-9,3.1,Arbovirus inh repeat=-11
Fc1ccc(Oc2cc(N3CCOCC3)nc(-c3ccccc3)n2)c(F)c1,-36,-1,11%,-2,1.7,
O=Cc1ccccc1OCc1nnsc1Cl,/,-2,2%,6,/,
CCNC(=S)N(Cc1ccc(OC)cc1)C1CC(=O)N(c2ccc(OCC)cc2)C1=O (centres undefined),-16,0,7%,-2,0.2,
Cc1sc2ncn(CC(=O)NCc3ccco3)c(=O)c2c1-c1ccccc1,/,8,-5%,9,-1.0,
O=C(N/N=C/c1cccnc1)c1cc(-c2ccccc2OCc2ccccc2)n[nH]1,/,/,15%,28,/,
COCCOC(=O)C1=C(C)OC(N)=C(C#N)C1c1ccco1 (centres undefined),8,-3,-6%,-10,-3.0,
COc1ccc(NC(C)=O)cc1CNC(=O)COc1c(C)c(C)cc(C)c1C,-22,-6,-4%,4,0.7,
NC(=O)c1coc(-c2ccccc2)n1,/,13,1%,-4,0.3,
CCCCNC(=O)NC(C(N)=O)P(=O)(OCC)OCC (centres undefined),/,/,0%,0,-1.4,
Cc1cc(OCC(=O)NCCCN2CCOCC2)c2c(C)cc(=O)oc2c1,/,/,/,5,-1.2,
COc1ccc(/C(O)=C2/C(=O)C(=O)N(CCCC(=O)O)C2c2ccc(OC)c(OC)c2)cc1 (centres undefined),-10,2,-2%,-6,0.5,
Cn1cc(Cl)c(/C=C(\C#N)S(=O)(=O)c2ccccc2)n1,/,/,-1%,-8,9.5,
CCCc1[nH]nc2c1C(CCc1ccccc1)C(C#N)=C(N)O2 (centres undefined),-33,0,-3%,-5,55*,
CN1CCN(c2ccccc2NC(=O)Cn2ncc3c([nH]c4ccccc43)c2=O)CC1,/,/,/,-8,-5.6,
O=C(Oc1nsnc1N1CCCCC1)N1CCOCC1,6,1,10%,0,0.3,
Cc1noc(C)c1CSc1nc2ccccc2n1C,-35,-1,-6%,-7,0.1,
Cc1ccc(CNC(=O)C2CCC(=O)N2CCc2ccccc2)cc1 (centres undefined),15,4,5%,11,-3.4,
Cc1cccc(Nc2nc(N)nc(CN3CCN(Cc4ccc5c(c4)OCO5)CC3)n2)c1,-18,4,-8%,90,-1.4,
Cc1cc(C)n(C(=O)CSc2ccc(Cl)cc2)n1,-43,-1,-8%,-5,-1.1,
CCCCNC(=O)c1cc2cccc([N+](=O)[O-])c2[nH]1,/,/,5%,3,3.5,
COc1cc(/C=C/C(=O)Nc2ccncc2)cc(OC)c1OC,-17,4,3%,10,-3.5,
O=C1NC(c2ccccc2)=C(c2ccc3ccccc3n2)C(c2ccccc2)N1 (centres undefined),-16,3,8%,-7,/,
CCOC(=O)c1cnc2c(N=Nc3ccccc3)c(N)nn2c1N,-7,-5,-6%,45,0.1,
CCCn1nnc(NC(=O)c2ccc3ccccc3c2)n1,/,-3,-1%,2,-1.9,

# 7 compounds picked at random from the list so far:
SMILES,YopH inh,Arbovirus inh,Mtb growth,Mtb bLac sens,RecA intein inh,others
Cn1cc(Cl)c(/C=C(\C#N)S(=O)(=O)c2ccccc2)n1,/,/,-1%,-8,9.5,
COc1ccc(/C(O)=C2/C(=O)C(=O)N(CCCC(=O)O)C2c2ccc(OC)c(OC)c2)cc1 (centres undefined),-10,2,-2%,-6,0.5,
O=C1NC(c2ccccc2)=C(c2ccc3ccccc3n2)C(c2ccccc2)N1 (centres undefined),-16,3,8%,-7,/,
Cc1ccc(CNC(=O)C2CCC(=O)N2CCc2ccccc2)cc1 (centres undefined),15,4,5%,11,-3.4,
Cc1cc(C)n(C(=O)CSc2ccc(Cl)cc2)n1,-43,-1,-8%,-5,-1.1,
O=C(N/N=C/c1cccnc1)c1cc(-c2ccccc2OCc2ccccc2)n[nH]1,/,/,15%,28,/,
NC(=O)c1coc(-c2ccccc2)n1,/,13,1%,-4,0.3,

# Remaining list, next part.
SMILES,YopH inh,Arbovirus inh,Mtb growth,Mtb bLac sens,RecA intein inh,others
Cc1ccc(-c2cnc(NC(=O)CCC(=O)N3CCCCC3)n2C)cc1,-38,1,-5%,-6,/,
Cc1[nH]c2ccccc2c1/C=N/NC(=O)CNC(=O)c1ccco1,/,/,1%,-1,2.2,
CCCOC(=O)/C=C/c1c(C)[nH]c(=O)[nH]c1=O,0,-1,2%,-6,-3.9,
C#CCN(C)CCCOc1ccc(Cl)cc1Cl,-22,-14,-9%,-1,2.8,
Cc1ccc(C(=O)Nc2ccccc2N2CCN(C(=O)C(C)C)CC2)cc1C,-26,-10,4%,-3,2.7,
COc1ccc(C2CC(=O)Oc3c(C(CCN4CCCC(C)C4)c4ccc(N(C)C)cc4)c(OC)cc(OC)c32)cc1 (centres undefined),/,/,-3%,45,4.2,
CC(C(=O)Nc1ccccc1Sc1ccccc1)N(c1ccccc1)S(C)(=O)=O (centres undefined),-38,-11,-1%,-2,12,
C/C(=N\Nc1ccccc1)c1c(O)n(C)c(=O)n(C)c1=O,-29,-30,/,86,-2.5,
COc1ccc(N2CCN(C(=O)COC(=O)c3oc4ccc(OC)cc4c3C)CC2)cc1,/,/,/,3,-0.6,
CCCCOC(=O)c1ccc(NC(=O)COC(=O)C2CSC3(C)CCC(=O)N23)cc1 (centres undefined),/,/,/,-3,1.4,
CSc1cccc(NC(=O)Cn2cccc2)c1,-29,7,28%,22,0.8,
O=C(c1ccc2ccccc2n1)N1CCN(c2ccccc2O)CC1,25,0,3%,9,0.9,
COc1cc(CO)ccc1OCC(=O)Nc1cccc2ccccc12,/,/,/,2,0.2,
CC(C)CC(=O)NC(=S)Nc1ccc(CN2CCOCC2)cc1,/,/,6%,0,-1.5,
CN(C(=O)COC(=O)c1cc(S(=O)(=O)N(C)C)ccc1Cl)C1CCS(=O)(=O)C1 (centres undefined),/,/,/,-8,-1.0,
O=C(Cc1cccs1)N/N=C/c1ccc(OCc2ccccc2)cc1,-12,-9,7%,9,-100,
CCN(CC)c1ccc(/C=N/NC(=O)c2ccoc2C)cc1,/,/,4%,-7,1.0,
O=C(CO)N/N=C/c1ccccc1F,-29,1,-3%,5,0.9,
